Ran FRET – inhibitors of Ran–importin-beta complex formation, primary screen, biochemical, CFP-Ran/YFP-importin-beta FRET, RCC1, cell-free (AID 434961); Regulator of chromosome condensation (Homo sapiens) + GTP-binding nuclear protein Ran …; inhibition, %; 7,700 tested, 0.2% active; CFP-Ran/YFP-importin-beta FRET, cell-free; hits give high values;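 active = more than half of the replicate wells above 15% inhibition; inconclusive = exactly half above it; inactive = fewer than half above it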;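 note: 0% = DMSO wells and 100% inhibition = RanGDP control wells on each plate; stock of unstated strength diluted about 400-fold; mean of two wells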
* marks the source's active call; other numbers are inactive results; u = inconclusive.

Molecule | Ran FRET
C[C@H](CO)N1C[C@H](C)[C@@H](CN(C)S(=O)(=O)c2cn(C)cn2)Oc2ccc(N(C)C)cc2C1=O | -2.6
COc1ccc(NC(=O)Nc2cccc3c2O[C@H](CN(C)C)[C@@H](C)CN([C@@H](C)CO)C3=O)cc1 | 2.5
C[C@@H]1CN([C@@H](C)CO)C(=O)c2cc(NC(=O)NC3CCCCC3)ccc2O[C@H]1CN(C)S(=O)(=O)c1cn(C)cn1 | -2.3
COc1ccc(S(=O)(=O)N(C)C[C@@H]2Oc3ccc(NC(=O)Nc4ccc5c(c4)OCO5)cc3CC(=O)N([C@@H](C)CO)C[C@H]2C)cc1 | -4.3
C[C@H](CO)N1C[C@H](C)[C@@H](CN(C)CC2CC2)Oc2ccc(NC(=O)Nc3ccccc3)cc2CC1=O | -0.5
CC(C)NC(=O)Nc1ccc2c(c1)C(=O)N([C@H](C)CO)C[C@H](C)[C@@H](CN(C)C(=O)c1ccncc1)OCCCC[C@@H](C)O2 | 2.9
C[C@@H]1CN([C@H](C)CO)C(=O)c2cc(NS(=O)(=O)c3ccccc3)ccc2O[C@@H](C)CCCCO[C@@H]1CN(C)S(C)(=O)=O | u
COc1ccc(NC(=O)N(C)C[C@@H]2Oc3ncc(C#Cc4ccccc4)cc3C(=O)N([C@H](C)CO)C[C@@H]2C)cc1 | 2.4
C[C@H](CO)N1C[C@H](C)[C@H](CN(C)CC2CC2)Oc2ccc(NC(=O)Cn3cnnn3)cc2C1=O | -4.2
C[C@H](CO)N1C[C@H](C)[C@H](CN(C)C(=O)Nc2cccc3ccccc23)Oc2ccc(NC(=O)Nc3cccc4ccccc34)cc2CC1=O | -2.7
COc1ccc(S(=O)(=O)N(C)C[C@H]2Oc3ccc(NC(=O)CCCN(C)C)cc3CC(=O)N([C@H](C)CO)C[C@H]2C)cc1 | -0.7
Cc1noc(C)c1NC(=O)N(C)C[C@H]1Oc2ccc(NC(=O)NC3CCCCC3)cc2C(=O)N([C@H](C)CO)C[C@@H]1C | -3.2
C[C@@H]1CCCCO[C@@H](CN(C)C)[C@H](C)CN([C@@H](C)CO)C(=O)c2cc(NC(=O)C3CCCCC3)ccc2O1 | -2.8
C[C@@H]1CN([C@@H](C)CO)C(=O)c2cccc(NC(=O)C3CCOCC3)c2O[C@@H]1CN(C)C(=O)Nc1ccc2c(c1)OCO2 | -4.0
CC(C)NC(=O)Nc1ccc2c(c1)C(=O)N([C@H](C)CO)C[C@@H](C)[C@H](CN(C)C)O2 | 4.0
C[C@@H]1CN([C@H](C)CO)C(=O)c2cccc(NS(=O)(=O)c3ccccc3)c2O[C@H]1CN(C)C(=O)Nc1ccccc1 | -4.8
Cc1noc(C)c1NC(=O)N(C)C[C@H]1Oc2ccc(NS(=O)(=O)c3cn(C)cn3)cc2CC(=O)N([C@H](C)CO)C[C@H]1C | u
Cc1noc(C)c1NC(=O)Nc1ccc2c(c1)C(=O)N([C@@H](C)CO)C[C@H](C)[C@@H](CN(C)C(=O)C1CCCCC1)OCCCC[C@H](C)O2 | u
Cc1noc(C)c1NC(=O)Nc1ccc2c(c1)C(=O)N([C@@H](C)CO)C[C@@H](C)[C@H](CN(C)C(=O)Nc1c(C)noc1C)O2 | -5.0
COc1ccc(S(=O)(=O)N(C)C[C@H]2Oc3c(NC(=O)Nc4cccc5ccccc45)cccc3C(=O)N([C@H](C)CO)C[C@H]2C)cc1 | -1.7
Cc1noc(C)c1NC(=O)N(C)C[C@H]1OCc2cn(nn2)CCCC(=O)N([C@@H](C)CO)C[C@@H]1C | 0.9
C[C@H](CO)N1C[C@H](C)[C@@H](CN(C)Cc2ccc(C(F)(F)F)cc2)Oc2ccc(N(C)C)cc2CC1=O | 1.9
COc1ccc(NC(=O)Nc2cccc3c2O[C@H](CN(C)S(=O)(=O)c2cccs2)[C@@H](C)CN([C@@H](C)CO)C3=O)cc1 | 7.8
C[C@@H]1CN([C@H](C)CO)C(=O)c2cc(NC(=O)NC3CCCCC3)ccc2O[C@@H]1CN(C)Cc1ccc2c(c1)OCO2 | 3.8
C[C@H](CO)N1C[C@H](C)[C@H](CN(C)Cc2ccc(O)cc2)OCc2cnnn2CCCC1=O | u
C[C@@H]1CCCCO[C@@H](CN(C)C(=O)Cc2ccccc2)[C@@H](C)CN([C@@H](C)CO)C(=O)c2cc(NS(C)(=O)=O)ccc2O1 | -4.7
CNC[C@H]1Oc2c(NC(=O)Nc3ccccc3)cccc2C(=O)N([C@@H](C)CO)C[C@H]1C | -0.1
C[C@H](CO)N1C[C@H](C)[C@H](CN(C)CC2CC2)Oc2ccc(NS(=O)(=O)c3cccs3)cc2CC1=O | 6.8
COc1ccc(S(=O)(=O)Nc2cccc3c2O[C@@H](CN(C)S(=O)(=O)c2cccs2)[C@H](C)CN([C@H](C)CO)C3=O)cc1 | -4.7
C[C@H](CO)N1C[C@H](C)[C@H](CN(C)Cc2ccc(C(F)(F)F)cc2)Oc2ccc(NC(=O)Nc3ccc4c(c3)OCO4)cc2C1=O | u
CNC[C@@H]1OCCCC[C@H](C)Oc2ccc(NC(=O)Nc3ccccc3)cc2C(=O)N([C@H](C)CO)C[C@@H]1C | -1.9
C[C@H]1CN([C@@H](C)CO)C(=O)c2cccc(NS(C)(=O)=O)c2O[C@@H]1CN(C)S(=O)(=O)c1ccc(Cl)cc1 | u
C[C@@H]1CN([C@H](C)CO)C(=O)c2cc(NC(=O)CCCN(C)C)ccc2O[C@H]1CN(C)C(=O)Nc1ccccc1 | -1.0
C[C@@H]1CN([C@H](C)CO)C(=O)c2cccc(NC(=O)C3CCOCC3)c2O[C@@H]1CN(C)Cc1ccc2c(c1)OCO2 | -2.0
C[C@H](CO)N1C[C@H](C)[C@H](CN(C)S(=O)(=O)c2cn(C)cn2)Oc2ncc(Br)cc2C1=O | 1.5
CC(C)NC(=O)N(C)C[C@H]1OCCCC[C@@H](C)Oc2ccc(NC(=O)c3ccncc3)cc2C(=O)N([C@H](C)CO)C[C@@H]1C | -4.5
C[C@H]1CN([C@@H](C)CO)C(=O)c2cc(NC(=O)Nc3ccc4c(c3)OCO4)ccc2O[C@H]1CN(C)C(=O)NC1CCCCC1 | -4.2
C[C@@H]1CN([C@@H](C)CO)C(=O)Cc2cc(NC(=O)Cc3ccccc3)ccc2O[C@H]1CN(C)Cc1ccncc1 | 0.6
C[C@@H]1CCCCO[C@@H](CN(C)C(=O)CCC(F)(F)F)[C@@H](C)CN([C@H](C)CO)C(=O)c2cc(NC(=O)Nc3ccc4c(c3)OCO4)ccc2O1 | 5.5
C[C@@H]1CN([C@@H](C)CO)C(=O)c2cc(NC(=O)NC3CCCCC3)ccc2O[C@H]1CN(C)C(=O)Nc1ccc2c(c1)OCO2 | 0.2
C[C@@H]1CCCCO[C@H](CN(C)Cc2ccccc2)[C@@H](C)CN([C@H](C)CO)C(=O)c2cc(N(C)C)ccc2O1 | -11
C[C@@H]1CN([C@H](C)CO)C(=O)c2cccc(NC(=O)NC3CCCCC3)c2O[C@@H]1CN(C)C(=O)Nc1ccc(F)cc1 | -0.9
C[C@H](CO)N1C[C@H](C)[C@H](CN(C)Cc2ccc(Cl)c(Cl)c2)Oc2c(NC(=O)c3ccncc3)cccc2C1=O | u
C[C@@H]1CCCCO[C@@H](CN(C)C)[C@@H](C)CN([C@@H](C)CO)C(=O)c2cc(NC(=O)C3CCCCC3)ccc2O1 | 0.9
COc1ccc(S(=O)(=O)Nc2ccc3c(c2)CC(=O)N([C@H](C)CO)C[C@H](C)[C@@H](CN(C)C)O3)cc1 | u
Cc1noc(C)c1NC(=O)N(C)C[C@H]1Oc2c(NC(=O)c3cnccn3)cccc2C(=O)N([C@H](C)CO)C[C@H]1C | -1.4
C[C@@H]1CN([C@H](C)CO)C(=O)c2cccc(NS(C)(=O)=O)c2O[C@@H]1CN(C)Cc1ccc(C(F)(F)F)cc1 | 8.6
C[C@H]1CCCCO[C@@H](CN(C)S(=O)(=O)c2ccc(F)cc2)[C@@H](C)CN([C@@H](C)CO)C(=O)c2cc(NC(=O)C3CCCCC3)ccc2O1 | -0.1
Cc1cc(C(=O)Nc2cccc3c2O[C@H](CN(C)C(=O)NC2CCCCC2)[C@H](C)CN([C@@H](C)CO)C3=O)n(C)n1 | 3.7
C[C@@H]1CCCCO[C@H](CN(C)Cc2ccc(C(=O)O)cc2)[C@H](C)CN([C@H](C)CO)C(=O)c2cc(NC(=O)c3ccncc3)ccc2O1 | 1.7
C[C@@H]1CN([C@@H](C)CO)C(=O)c2cc(NC(=O)CCN3CCOCC3)ccc2O[C@@H]1CN(C)C | -0.9
C[C@H](CO)N1C[C@H](C)[C@H](CN(C)S(=O)(=O)c2cccs2)Oc2ccc(NC(=O)Cc3ccccc3)cc2CC1=O | 4.2
C[C@@H]1CN([C@@H](C)CO)C(=O)c2cccc(NC(=O)C3CCOCC3)c2O[C@H]1CN(C)C(=O)Nc1cccc2ccccc12 | 6.6
C[C@@H]1CCCCO[C@@H](CN(C)C(=O)c2ccccc2)[C@H](C)CN([C@H](C)CO)C(=O)c2cc(NS(=O)(=O)c3ccccc3)ccc2O1 | -1.8
C[C@H]1CCCCO[C@H](CN(C)Cc2ccccc2)[C@@H](C)CN([C@@H](C)CO)C(=O)c2cc(NC(=O)CCC(F)(F)F)ccc2O1 | -2.6
COc1ccc(S(=O)(=O)Nc2cccc3c2O[C@@H](CN(C)CC2CC2)[C@H](C)CN([C@H](C)CO)C3=O)cc1 | 6.8
C[C@@H]1CN([C@@H](C)CO)C(=O)c2cccc(NC(=O)c3ccncc3)c2O[C@@H]1CN(C)CC1CC1 | -6.1
C[C@@H]1CN([C@H](C)CO)C(=O)c2cccc(NC(=O)Nc3cccc4ccccc34)c2O[C@H]1CN(C)C(=O)Nc1ccc(F)cc1 | 0.5
COc1ccc(CN(C)C[C@@H]2Oc3ccc(NC(=O)Nc4ccc(C(F)(F)F)cc4)cc3C(=O)N([C@H](C)CO)C[C@H]2C)cc1 | -2.7
C[C@@H]1CCCCO[C@@H](CN(C)C(=O)CCC(F)(F)F)[C@H](C)CN([C@H](C)CO)C(=O)c2cc(N(C)C)ccc2O1 | -2.8

Three successive compounds out of the list so far:
Molecule | Ran FRET
Cc1cc(C(=O)Nc2cccc3c2O[C@H](CN(C)C(=O)NC2CCCCC2)[C@H](C)CN([C@@H](C)CO)C3=O)n(C)n1 | 3.7
C[C@@H]1CCCCO[C@H](CN(C)Cc2ccc(C(=O)O)cc2)[C@H](C)CN([C@H](C)CO)C(=O)c2cc(NC(=O)c3ccncc3)ccc2O1 | 1.7
C[C@@H]1CN([C@@H](C)CO)C(=O)c2cc(NC(=O)CCN3CCOCC3)ccc2O[C@@H]1CN(C)C | -0.9

(list continues)
Molecule | Ran FRET
C[C@H](CO)N1C[C@H](C)[C@@H](CN(C)Cc2ccc(C(F)(F)F)cc2)Oc2c(cccc2N(C)C)C1=O | 1.4
C[C@@H]1CN([C@@H](C)CO)C(=O)c2cc(NS(=O)(=O)c3cccs3)ccc2O[C@@H]1CN(C)C(=O)Nc1ccc2c(c1)OCO2 | -0.6
C[C@@H]1CN([C@@H](C)CO)C(=O)c2cccc(NC(=O)C3CCOCC3)c2O[C@H]1CN(C)S(=O)(=O)c1cn(C)cn1 | -0.6
Cc1noc(C)c1NC(=O)Nc1cccc2c1O[C@@H](CN(C)Cc1ccc(C(=O)O)cc1)[C@H](C)CN([C@@H](C)CO)C2=O | 3.0
C[C@@H]1CCCCO[C@H](CN(C)S(=O)(=O)c2ccccc2)[C@H](C)CN([C@@H](C)CO)C(=O)c2cc(NC(=O)CCCN(C)C)ccc2O1 | -4.9
Cc1noc(C)c1S(=O)(=O)N(C)C[C@H]1OCCCC[C@H](C)Oc2ccc(NS(C)(=O)=O)cc2C(=O)N([C@H](C)CO)C[C@H]1C | -1.4
C[C@@H]1CN([C@H](C)CO)C(=O)c2cc(NC(=O)c3ccncc3)ccc2O[C@@H](C)CCCCO[C@@H]1CN(C)C(=O)C1CCCCC1 | -4.4
Cc1noc(C)c1NC(=O)Nc1cccc2c1O[C@@H](CN(C)Cc1ccc(Cl)c(Cl)c1)[C@@H](C)CN([C@@H](C)CO)C2=O | -4.7
Cc1noc(C)c1NC(=O)Nc1cccc2c1O[C@H](CN(C)S(=O)(=O)c1cccs1)[C@@H](C)CN([C@@H](C)CO)C2=O | -2.7
CNC[C@H]1Oc2c(NS(=O)(=O)c3cn(C)cn3)cccc2C(=O)N([C@@H](C)CO)C[C@H]1C | -4.1
C[C@@H]1CN([C@H](C)CO)C(=O)Cc2cc(NS(=O)(=O)c3cn(C)cn3)ccc2O[C@H]1CN(C)Cc1ccccc1 | 1.9
C[C@@H]1CN([C@H](C)CO)C(=O)c2cccc(NS(C)(=O)=O)c2O[C@@H]1CN(C)C(=O)Nc1cccc2ccccc12 | 0.4
CNC[C@H]1Oc2c(NC(=O)c3cc(C)nn3C)cccc2C(=O)N([C@@H](C)CO)C[C@@H]1C | -2.7
C[C@H]1CN([C@@H](C)CO)C(=O)c2cc(NS(=O)(=O)c3ccccc3)ccc2O[C@@H]1CN(C)C(=O)NC1CCCCC1 | 1.3
C[C@@H]1CN([C@H](C)CO)C(=O)Cc2cc(NC(=O)Cn3cnnn3)ccc2O[C@@H]1CN(C)C(=O)NC1CCCCC1 | -2.5

Shown field by field: part of the list above
smiles: C[C@H](CO)N1C[C@H](C)[C@@H](CN(C)Cc2ccc(C(F)(F)F)cc2)Oc2c(cccc2N(C)C)C1=O
  Ran FRET: 1.4

smiles: C[C@@H]1CN([C@@H](C)CO)C(=O)c2cc(NS(=O)(=O)c3cccs3)ccc2O[C@@H]1CN(C)C(=O)Nc1ccc2c(c1)OCO2
  Ran FRET: -0.6

smiles: C[C@@H]1CN([C@@H](C)CO)C(=O)c2cccc(NC(=O)C3CCOCC3)c2O[C@H]1CN(C)S(=O)(=O)c1cn(C)cn1
  Ran FRET: -0.6

smiles: Cc1noc(C)c1NC(=O)Nc1cccc2c1O[C@@H](CN(C)Cc1ccc(C(=O)O)cc1)[C@H](C)CN([C@@H](C)CO)C2=O
  Ran FRET: 3.0

High-throughput results as filed in PubChem BioAssay.

An excerpt; count on the stated rates, not on these rows.
